VACV mCherry inh – vaccinia inhibition (mCherry reporter) | Vaccinia virus mCherry reporter infection, fluorescence; about a quarter of the inactives have no number | 310,000 tested, 0.63% active | Potency, µM (doses to about 36.5 µM), without a hit: at the highest dose activity change, negative = inhibition, actives largely listed as inhibitors; active = well fitted inhibition curve with a large enough effect; inconclusive = small, poorly fitted or top-dose-only effect; inactive = no such curve, though single readings can be large or run the other way; tested in A549 cells; also: nearly all actives have a fitted effect of over 35% in size; inactives centre near -10
VACV Venus inh – vaccinia inhibition (Venus reporter). Vaccinia virus Venus reporter expression, fluorescence. Potency, µM (series often up to 36.5 µM), for the others: top-dose activity change, negative = inhibition, actives largely listed as inhibitors. 330,000 tested, 0.46% active. AID 720580; active means well fitted inhibition curve with a large enough effect; inconclusive means small, poorly fitted or top-dose-only effect; inactive means no such curve, though single readings can be large or run the other way; tested in A549 cells; also: nearly all actives have a fitted effect of over 30% in size; inactives centre near -10
The depositor's hits bear a star; i = inactive; ? = inconclusive; . = not tested or not shown; [ ] = dose if it differs, or a comment. % is scaled to controls: 0 for no effect and ±100 for the full control effect; potency is read from the fitted curve at half-maximal effect.

Start of the data: the first two compounds, to show the layout:
SMILES	VACV mCherry inh	VACV Venus inh
CC1CCCN(C(=O)CNC(=O)Cn2ccc3ccccc3c2=O)C1 (stereo not given)	18%	-4%
Nn1c(COc2ccccc2)nnc1SC(F)F	-6%	-2%

This part in full, previewed entries included:
SMILES	VACV mCherry inh	VACV Venus inh
CC1CCCN(C(=O)CNC(=O)Cn2ccc3ccccc3c2=O)C1 (stereo not given)	18%	-4%
Nn1c(COc2ccccc2)nnc1SC(F)F	-6%	-2%
Cc1c(NC(=O)CN2C(=O)NC(C)(c3ccccc3Cl)C2=O)c(=O)n(-c2ccccc2)n1C (stereo not given)	-9%	-6%
O=C(CCNC(=O)c1ccc(Br)cc1)OCc1ccccc1Cl	-12%	-2%
CC1CCCC(C)N1C(=O)COC(=O)c1ccc(S(=O)(=O)N(C)c2ccccc2)cc1 (stereo not given)	-17%	-7%
N#C/C(=C\c1cccc(O)c1)C(=O)N1CCCCC1	-3%	2%
CC(=O)Nc1cccc(NC(=O)c2cccc3cccnc23)c1	-27%	-19%
CNCCNS(=O)(=O)c1cccc2cnccc12	-18%	-14%
COc1ccccc1-c1noc2ncnc(Nc3cccc(C)c3)c12	i	-16%
CCO[C@H]1[C@H](NC(=O)c2cccnc2)c2ccccc2C12CCN(C(=O)c1cc(C)n(C)n1)CC2	-14%	-7%
O=C(CN1C(=O)C2CCCCN2c2ccc(C(=O)N3CCCC3)cc21)NCc1ccccc1F (stereo not given)	-8%	-4%
COc1ccc(C2C(C(=O)c3ccco3)=C(O)C(=O)N2Cc2cccnc2)cc1OC (stereo not given)	-8%	-2%
CN(C)CCNC(=O)c1ccc(-c2cn3c(-c4ccc(Oc5ccccc5)cc4)cnc3cn2)cc1	-5%	-20%
Cc1cc(C)c2c(=O)[nH]c(SCC(=O)c3ccc(F)c(C)c3)nc2n1	i	-10%
CCC(C)Sc1nc(C)nc2c1c(=O)n(C)c(=O)n2C (stereo not given)	i	-3%
Cc1ccc(C)c(S(=O)(=O)c2cn(Cc3ccccc3)c3cc(F)c(F)cc3c2=O)c1	-8%	-14%
COc1ccccc1-c1nnc(SC(C)C(=O)O)n1-c1ccccc1 (stereo not given)	i	-7%
COc1ccccc1N1CCN(CC2CN3C(=O)N(C)c4ccccc4C3=N2)CC1 (stereo not given)	-9%	-13%
O=C(CN1CCN(c2ccccn2)CC1)Nc1ccc(F)cc1	.	-7%
COc1ccccc1C(=O)Nc1c(C(=O)N(C)Cc2ccccc2)sc2nc(C)c(Cl)c(C)c12	5%	-14%
Cc1ccc(C)c(NS(=O)(=O)c2c(C)nn(C)c2C)c1	-6%	0%
CNC(=O)Nc1ccc(C2SCCS2)cc1	-21%	-17%
O=C(C1CCCN(S(=O)(=O)c2cccnc2)C1)N1CCn2c1nc1ccccc12 (stereo not given)	-2%	-12%
CCC(=O)N1CCc2cc(S(=O)(=O)NCCC(=O)Nc3cccc(C)c3C)ccc21	-7%	-10%
O=C(Cn1cc(S(=O)(=O)c2ccc(Cl)cc2)c(=O)c2ccccc21)Nc1ccc2c(c1)OCO2	-12%	-9%

An excerpt from above in order of SMILES length, largest number first:
SMILES	VACV mCherry inh	VACV Venus inh
CCO[C@H]1[C@H](NC(=O)c2cccnc2)c2ccccc2C12CCN(C(=O)c1cc(C)n(C)n1)CC2	-14%	-7%
CN(C)CCNC(=O)c1ccc(-c2cn3c(-c4ccc(Oc5ccccc5)cc4)cnc3cn2)cc1	-5%	-20%
COc1ccccc1-c1nnc(SC(C)C(=O)O)n1-c1ccccc1 (stereo not given)	i	-7%
COc1ccccc1-c1noc2ncnc(Nc3cccc(C)c3)c12	i	-16%
O=C(CCNC(=O)c1ccc(Br)cc1)OCc1ccccc1Cl	-12%	-2%

Next section:
SMILES	VACV mCherry inh	VACV Venus inh
Cc1nc2sc3c(O)cc(=O)[nH]c3c2c(C)c1C	.	-6%
CCn1c(SCC(N)=O)nnc1C(C)C	3%	7%
Cc1ccc(NC(=O)c2cccc(Cl)c2)nc1	.	-1%
N#CC(Cc1ccc(OC(F)F)cc1)c1nc2ccccc2[nH]1 (stereo not given)	-2%	-1%
COc1ccc(S(=O)(=O)NCCN2CCOCC2)c(C)c1C	0%	-7%
CC(=O)CCC(=O)NCCc1ccccc1F	-10%[1.46 µM]	-15%
CC(C)(C)NC(=O)CN1C(=O)/C(=C/c2ccccc2)SC1=S	i	-11%
COc1ccccc1CC(=O)NC12CC3CC(CC(C3)C1)C2	-5%	-18%
CCOC(=O)C1=C(C)N(CCCC(=O)O)C(=O)NC1c1ccccc1 (stereo not given)	i	-1%
CC(Cc1ccccc1)C(=O)N1CCN(C)CC1 (stereo not given)	i	-14%
Cc1ccc(-c2nc3ccc(Cl)cn3c2Nc2ccc3c(c2)OCCO3)o1	-7%	-10%
CCc1ccccc1NC(=O)CCn1nc(C)c2c(C)n(-c3ccccc3)nc2c1=O	-17%	-11%
O=C(NCC(O)c1ccccc1)c1cccc(S(=O)(=O)N2CCOCC2)c1 (stereo not given)	.	-8%
CC(C)n1nc(C(=O)Nc2ccc(-n3cnnn3)cc2)c2ccccc2c1=O	4%	5%
COC(=O)c1cccc(NC(=O)CCc2cc(OC)c(OC)c(OC)c2)c1	i	-3%
CCN(CC(=O)Nc1ccc2c(c1)OCCO2)Cc1cc(=O)oc2c(C)c(C)ccc12	11%	-18%
Cc1[nH]n(-c2ccccc2)c(=O)c1C=NCc1ccncc1	i	-8%
O=C(O)c1ccc(NC(=O)c2ccc3c(c2)C(=O)N(CC2CCCO2)C3=O)cc1 (stereo not given)	i	6%
COc1ccccc1NS(=O)(=O)c1ccc2oc(N)nc2c1	i	0%
COC(=O)Cn1c(=NC(=O)C2COc3ccccc3O2)sc2cc(S(N)(=O)=O)ccc21 (stereo not given)	-12%	-3%
CN(CC(=O)Nc1ccc2c(c1)OCO2)S(=O)(=O)c1ccc(F)cc1	-21%	-3%
CC(=O)Nc1ccc(N2CCN(C(=O)c3cccs3)CC2)cc1	-1%	-4%
C/C(=N\NC(=O)c1c(Cl)c(C)nn1C)c1cccc(NC(=O)COc2ccccc2)c1	-29%	-20%
Nc1ncnc2c1ncn2[C@@H]1O[C@H](C(=O)N[C@H]2c3ccccc3C[C@H]2O)[C@@H](O)[C@H]1O	16%	-1%
CCCOc1ccc(C(O)CCNC(CC(=O)O)c2ccccc2)cc1 (stereo not given)	i	-13%

Pulled one by one from the list above, 5 records:
SMILES	VACV mCherry inh	VACV Venus inh
Cc1[nH]n(-c2ccccc2)c(=O)c1C=NCc1ccncc1	i	-8%
Nc1ncnc2c1ncn2[C@@H]1O[C@H](C(=O)N[C@H]2c3ccccc3C[C@H]2O)[C@@H](O)[C@H]1O	16%	-1%
O=C(NCC(O)c1ccccc1)c1cccc(S(=O)(=O)N2CCOCC2)c1 (stereo not given)	.	-8%
CC(C)n1nc(C(=O)Nc2ccc(-n3cnnn3)cc2)c2ccccc2c1=O	4%	5%
CCCOc1ccc(C(O)CCNC(CC(=O)O)c2ccccc2)cc1 (stereo not given)	i	-13%

(next part)
SMILES	VACV mCherry inh	VACV Venus inh
CN(CC(=O)O/N=C(\N)c1ccccn1)S(=O)(=O)c1ccc(Br)cc1	i	-11%
O=C(c1ncn(Cc2ccccc2)c1C(=O)N1CCN(c2ccccc2)CC1)N1CCN(c2ccccc2)CC1	?	-29%
CC(C)c1ccccc1NC(=O)Cn1c(-c2ccccc2Cl)nc2ccccc21	i	-14%
O=C(CN(Cc1ccccc1)C(=O)CCl)c1cccc(Br)c1	i	-16%
CC(C)C[C@H](NC(=O)c1nc[nH]c1C(=O)N(C)Cc1ccccc1)C(=O)OCc1ccccc1	-8%	-10%
CN(Cc1ccccc1)C(=O)c1ccc2nc([C@@H]3O[C@H](CO)[C@H](O)[C@H](O)[C@H]3O)[nH]c2c1	0%	0%
CCc1nnc(NC(=O)CSc2nc3cccnc3n2Cc2ccccc2)s1	-16%	-14%
Cc1cc(=O)cc(C)[nH]1	i	-4%
CCNC(=S)NS(=O)(=O)c1ccccc1	.	-8%
O=C(c1ccc(S(=O)(=O)NCc2ccco2)cc1)N1CCCC(C(F)(F)F)C1 (stereo not given)	i	-13%
CC(=O)c1ccc(S(=O)(=O)N2CCN(c3nn(C)c(=O)n(C)c3=O)CC2)cc1	-13%	5%
O=C(Nc1ccc(F)cc1F)c1cc(-c2ccc(Cl)cc2)on1	-7%	4%
CN(C)Cc1csc(NC(=O)Nc2ccccc2-c2ccccc2)n1	4%	-21%
Cc1cccc(NC(=O)CSc2nnc3[nH]c(=O)cc(-c4ccccc4)n23)c1C	i	3%
O=C1c2ccccc2C(=O)N1CCN1CCCCC1	i	0%
COc1ccc([C@H]2CC(=O)C=C(c3ccc(OC)nc3)C2)cc1	i	-4%
CCc1ccc(OCC(=O)N/N=C(\C)c2ccc(OC(F)F)cc2)cc1	i	-12%
CN(C)S(=O)(=O)c1cc(NC(=O)CNCc2ccccc2)ccc1Cl	-7%	-6%
COc1cc(OC)c(NC(=O)C(Cc2ccccc2)NS(=O)(=O)c2cccc3nsnc23)cc1Cl (stereo not given)	-10%	-10%
Cc1ccc(C(=O)CSc2nnc(-c3ccco3)n2Cc2ccccc2)cc1	-9%	-18%
COc1cccc(C(=O)N2CCC(N3CCN(Cc4ccc(F)cc4)C(=O)C3=O)CC2)c1	0%	2%
O=C(O)C1CCCCN1S(=O)(=O)c1ccc(Cl)s1 (stereo not given)	28%	-9%
Cc1ccc(C)c(N(CC(=O)Nc2ccccc2C(=O)NCc2ccco2)S(=O)(=O)c2ccccc2)c1	-27%	-28%
Cc1ccc(OCC(=O)NNC(=S)NCc2ccccc2)cc1	i	4%
CN(CCO)C(=O)C(c1ccccc1)c1ccccc1	i	-10%
More entries.
SMILES	VACV mCherry inh	VACV Venus inh
C[C@@H](C(=O)Nc1nccs1)N1C(=O)C2CC=CCC2C1=O (stereo not given in full)	i	-7%
Cc1cccn2c(=O)cc(CSc3nnc(NC(=O)c4ccc(F)cc4)s3)nc12	i	-9%
CC(=O)c1ccc(NC(=O)COc2ccccc2-c2nc(C(C)C)no2)cc1	?	-20%
CCOC(=O)C1(Cc2ccccc2)CCCN(CCCn2cccn2)C1 (stereo not given)	-12%	-8%
COc1ccc(CCN2C(=O)CC(N3CCC(C(N)=O)CC3)C2=O)cc1OC (stereo not given)	-4%	5%
CCN(CC(=O)NCc1ccc(Cl)cc1)C(=O)CCC(=O)c1ccc(F)cc1	-12%	-24%
COc1cccc(NC(=O)c2cc3c(=O)n4ccccc4nc3n(CC(C)C)c2=N)c1	i	-7%
CC1=NCCN1S(=O)(=O)c1cccc([N+](=O)[O-])c1	-27%	-7%
Cc1c(CC(=O)NCC(=O)NCC(=O)O)c(=O)oc2cc3oc4c(c3cc12)CCCC4	i	-11%
O=C(Nc1ccc2c(c1)OCCO2)c1cnc2n(c1=O)CCS2	?	-26%
Cc1cc(C)nc(CCNC(=O)CC2C(=O)NCCN2Cc2ccc(F)cc2Cl)n1 (stereo not given)	i	-8%
CC(C)C(NS(=O)(=O)c1ccc2c(c1)C(C)(C)C(=O)N2C)C(=O)NCc1ccccc1Cl (stereo not given)	i	-1%
Cc1sc2ncnc(N3CCN(c4ncccn4)CC3)c2c1C	.	-28%
Cc1noc(C)c1C(=O)N1CCC1(C)C(=O)NS(=O)(=O)c1cccc(F)c1 (stereo not given)	i	0%
Cc1cccc(-c2noc(CCC(=O)NCCc3ccccc3)n2)c1	-3%	-4%
COc1cccc(C(=O)C2CCCN(Cc3cn(C)nc3-c3ccccc3)C2)c1 (stereo not given)	-8%	0%
CN(Cc1ccsc1)C(=O)Cn1cc(Br)ccc1=O	-6%	-11%
Cc1cccc(C2CC(=O)Oc3c2c(=O)oc2ccccc32)c1 (stereo not given)	-4%	-11%
CCCc1c2ccccc2nc2ccccc12	-23%	-14%
O=C(NCC(c1ccc2c(c1)OCO2)N1CCOCC1)C(=O)Nc1cccc(Cl)c1 (stereo not given)	-3%	-9%
CC1CCC2(CC1)NC(=O)N(CC(=O)c1cccn1C)C2=O (stereo not given)	i	-7%
COc1ccc(-c2sc3cc4c(cc3c2C#CCO)OCO4)cc1	-5%	?
CC(C)(C)C(=O)NC(=S)Nc1ccccc1C(=O)Nc1ccccc1	-14%	-15%
CCOC(=O)/C=C1/SCC(=O)N1CC(=O)Nc1ccccc1OC(F)F	25%	88%[activator]
COCC(=O)N1C[C@H](C)[C@H](OC)CN(C)C(=O)c2cc(NC(=O)Nc3cccc(F)c3)ccc2OC[C@@H]1C	-9%	-7%
Additional compounds.
SMILES	VACV mCherry inh	VACV Venus inh
O=C(NC1CCS(=O)(=O)C1)C1CCCN(S(=O)(=O)c2ccc(Cl)cc2)C1 (stereo not given)	-9%	-8%
CCOCC(=O)NC1CCc2cc(OC(=O)COCC)c(OC)c(OC)c2-c2ccc(SC)c(=O)cc21 (stereo not given)	?	?
COc1ccc(C2NC(=O)c3n[nH]c(C)c32)c(OC)c1 (stereo not given)	i	-19%
Cc1cccc(NS(=O)(=O)c2ccc(C(=O)NCC(c3ccccc3)N(C)C)cc2)c1C (stereo not given)	-20%	-27%
COc1ccc(C2=Nc3ccccc3N(C(=O)c3cc(Cl)cc(Cl)c3)C2C(=O)NCc2ccccc2)cc1 (stereo not given)	?	-20%
CC(C)(C)c1ccc(OCCNC(=S)NC(=O)c2cccnc2)cc1	1%	-10%
S=C(NCCc1ccccc1)Nc1ncccn1	-17%	-16%
C=CCN(c1ccc(C(=O)N2CCN(c3ccc(F)cc3)CC2)cc1)S(C)(=O)=O	.	?
CCCCNC(=O)CN1C(=O)COc2ccc(S(=O)(=O)N3CCCCCC3)cc21	-10%	-15%

Bioassay records deposited in PubChem BioAssay by National Center for Advancing Translational Sciences (NCATS).

Random draw from the library; 0.87% or so of the library scored in one or more.
